# Compound activity: PubChem, Broad Institute
# Env fusion inh = inhibitors of HIV-1 Env-driven cell-cell fusion, primary screen, HeLa-JRFL effector, CEM21 target cells, luciferase; inhibition, % at 12.3 µM; 1.1% of 360,000 active;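 active = mean replicate inhibition score of at least 50 and every replicate individually at or above 50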;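 also: 0% = plate neutral controls and 100% = maraviroc near 300 nM; one replicate is shown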
# An asterisk follows results filed as active; [ ] = another dose, or the depositor's remark.
SMILES,Env fusion inh
CNC[C@@H]1OCCCC[C@H](C)Oc2ccc(NS(=O)(=O)c3ccc(OC)cc3)cc2C(=O)N([C@H](C)CO)C[C@@H]1C,1[16.7 µM]
O=C(C1CCCC1)N1CC[C@@H]2[C@H](CO)Nc3ccc(C#Cc4ccc(F)cc4)cc3[C@@H]21,38[16.7 µM]
O=C(C[C@H]1CC[C@H]2[C@@H](COC[C@@H](O)CN2C(=O)c2ccccc2F)O1)NCc1ccc(Cl)c(Cl)c1,13[16.7 µM]
CN(C)C(=O)C[C@H]1CC[C@H]2[C@@H](COc3ccc(NC(=O)NCc4ccccc4)cc3C(=O)N2C)O1,6[16.7 µM]
COc1ccc(CNC(=O)N(C)C[C@@H]2OCc3ccccc3-c3ccccc3C(=O)N([C@H](C)CO)C[C@H]2C)cc1,6[16.7 µM]
CC(C)COC(=O)N(C)C[C@H]1OCc2cn(nn2)CCCC(=O)N([C@@H](C)CO)C[C@H]1C,2[16.7 µM]
COc1ccc(NC(=O)Nc2ccc3c(c2)C(=O)N(C)C[C@H](OC)[C@@H](C)CN[C@H](C)CO3)cc1,-2[16.7 µM]
CO[C@H]1CN(C)C(=O)c2ccc(NC(=O)Cc3ccccc3)cc2OC[C@@H](C)N(C(=O)c2ccccc2F)C[C@@H]1C,6[16.7 µM]
C[C@H](CO)N1C[C@H](C)[C@H](CN(C)S(=O)(=O)c2ccc(Cl)cc2)Oc2ccc(NC(=O)Nc3ccc(C(F)(F)F)cc3)cc2CC1=O,37[16.7 µM]
COc1ccc2c3c(n(C)c2c1)[C@@H](CO)N(C(=O)c1cnccn1)CC31CCN(C(C)=O)CC1,-4[16.7 µM]
CC(C)[C@@H]1COCn2nncc2CCCC(=O)N1,-18[16.7 µM]
CO[C@@H]1CN(C)C(=O)c2ccc(NC(=O)C3CCC3)cc2OC[C@@H](C)N(CC2CCCCC2)C[C@@H]1C,14[16.7 µM]
CN(C)c1ccc2c(c1)[C@H]1C[C@H](CC(=O)NCC3CC3)O[C@@H](CO)[C@H]1O2,4[16.7 µM]
C[C@@H](NC(=O)C[C@H]1C[C@H]2c3cc(NC(=O)C4CCOCC4)ccc3O[C@H]2[C@H](CO)O1)c1ccccc1,2[16.7 µM]
Cc1[nH]nc2c1C(c1ccc3c(c1)OCO3)N(Cc1ccccc1)C2=O (stereo unspecified),-38
CO[C@@H]1CN(C)C(=O)c2ccc(NC(=O)C3CC3)cc2OC[C@@H](C)N(C(=O)c2ccncc2)C[C@H]1C,-12[16.7 µM]
C[C@H](CO)N1C[C@H](C)[C@H](CN(C)S(=O)(=O)c2cccc(F)c2)Oc2cc(C#CCN(C)C)ccc2S1(=O)=O,-13[16.7 µM]
C[C@@H](NC(=O)C[C@H]1C[C@@H]2c3cc(N(C)C)ccc3O[C@@H]2[C@H](CO)O1)c1ccccc1,4[16.7 µM]
O=C(C[C@H]1CC[C@@H]2[C@H](COC[C@@H](O)CN2C(=O)Nc2ccc(Cl)c(Cl)c2)O1)NCc1ccncc1,21[16.7 µM]
O=C(NCC1CC1)[C@@H]1[C@@H](CO)[C@@H]2Cn3c(ccc(/C=C/c4ccccc4)c3=O)[C@H]1N2C(=O)C1CCC1,-21[16.7 µM]
C[C@H](CO)N1C[C@H](C)[C@@H](CN(C)C(=O)Nc2ccc(F)cc2)Oc2ccc(NC(=O)Cn3cnnn3)cc2CC1=O,3[16.7 µM]
C[C@@H]1CN([C@H](C)CO)C(=O)c2cc(NS(C)(=O)=O)ccc2O[C@@H](C)CCCCO[C@@H]1CN(C)C(=O)Cc1ccccc1,7[16.7 µM]
O=C(C[C@H]1CC[C@@H]2[C@H](COC[C@H](O)CN2Cc2nccs2)O1)NCc1ccc(F)cc1,-6[16.7 µM]
COc1ccc(CN(C)C[C@H]2Oc3ccc(NC(=O)Cc4ccccc4)cc3C(=O)N([C@@H](C)CO)C[C@H]2C)cc1,-6[16.7 µM]
C=CS(=O)(=O)N(C(=C)C(=O)OC)S(C)(=O)=O,9

# Later entries:
SMILES,Env fusion inh
CNC[C@@H]1OCc2ccccc2-c2c(n(C)c3ccccc23)C(=O)N([C@@H](C)CO)C[C@@H]1C,-7
CO[C@H]1CN(C)C(=O)c2ccc(NC(=O)C3CCOCC3)cc2OC[C@@H](C)N(Cc2nccs2)C[C@H]1C,-1[16.7 µM]
CC(C)NC(=O)Nc1ccc2c(c1)C(=O)N([C@H](C)CO)C[C@@H](C)[C@H](CN(C)C(=O)Nc1ccccc1)OCCCC[C@@H](C)O2,-1[16.7 µM]
C[C@@H]1CN([C@H](C)CO)C(=O)Cc2cc(NC(=O)Nc3ccc4c(c3)OCO4)ccc2O[C@H]1CN(C)S(=O)(=O)c1ccc(F)cc1,-29[16.7 µM]
CO[C@@H]1CN(C)C(=O)c2ccc(NC(=O)C3CCCCC3)cc2OC[C@H](C)N(Cc2cccnc2)C[C@H]1C,-22[16.7 µM]
CCCNC(=O)N1CCC2(CC1)CN(Cc1cccc(F)c1)[C@@H](CO)c1[nH]c3cc(OC)ccc3c12,-190[16.7 µM]
O=C(C[C@H]1C[C@H]2c3cc(NC(=O)C4CCC4)ccc3O[C@H]2[C@@H](CO)O1)NCCc1ccccc1,14[16.7 µM]
O=C/C=C/c1ccc(/C=C/c2ccccc2)cc1,-99[16.7 µM]
CN(C)c1ccc2c(c1)[C@@H]1C[C@H](CC(=O)O)O[C@H](CO)[C@@H]1O2,-15[16.7 µM]
Cc1noc(C)c1NC(=O)N(C)C[C@H]1Oc2ccc(N(C)C)cc2CC(=O)N([C@@H](C)CO)C[C@@H]1C,-4[16.7 µM]
CO[C@@H]1CN(C)C(=O)c2cc(NC(=O)C3CCC3)ccc2OC[C@@H](C)N(C)C[C@@H]1C,17[16.7 µM]
O=C(C[C@@H]1CC[C@H]2NC[C@H](O)COC[C@@H]2O1)N1CCc2ccccc2C1,0[16.7 µM]
COc1ccccc1-c1ccc2c(c1)O[C@H](CN(C)CC1CC1)[C@H](C)CN([C@@H](C)CO)S2(=O)=O,2[16.7 µM]
CN(C)CC(=O)N1CC2(C1)[C@H](c1ccccc1)[C@@H](CO)N2C(=O)C1CCCC1,-29[16.7 µM]
CO[C@@H]1CN(C)C(=O)c2cc(NC(=O)c3cc(C)on3)ccc2OC[C@H](C)N(CC2CC2)C[C@H]1C,45[16.7 µM]
Cc1ccccc1S(=O)(=O)Nc1ccc2c(c1)C(=O)N(C)[C@H]1CC[C@H](CC(=O)O)O[C@@H]1CO2,-6[16.7 µM]
CO[C@@H]1CC[C@@H]2CCN(C)C(=O)[C@H](C)[C@H](OC)CN(C)C(=O)c3cccc(C#N)c3OC[C@H]1O2,-3[16.7 µM]
C[C@@H]1CN([C@H](C)CO)C(=O)c2ccccc2-c2ccccc2CO[C@H]1CN(C)C(=O)[C@H](C)c1ccccc1,4[16.7 µM]
CO[C@H]1CN(C)C(=O)c2cc(NS(=O)(=O)c3cn(C)cn3)ccc2OC[C@@H](C)N(C)C[C@H]1C,-1[16.7 µM]
CO[C@@H](CN(C)Cc1cc(F)ccc1F)[C@H](C)CN([C@@H](C)CO)S(=O)(=O)c1ccc(F)cc1,15[16.7 µM]
CO[C@@H]1CN(C)C(=O)c2cc(NC(=O)Nc3ccccc3)ccc2OC[C@H](C)N(C(=O)CC2CC2)C[C@H]1C,6[16.7 µM]
COC(=O)[C@]12C[C@H](CC(=O)NCc3ccc(C)o3)C(=O)N(CCC3=CCCCC3)C1=C[C@H](COCc1ccccc1)O[C@@H]2C,8
O=C(C[C@H]1C[C@H]2c3cc(NC(=O)Cc4ccncc4)ccc3O[C@H]2[C@H](CO)O1)NCc1ccccn1,4[16.7 µM]
O=C1NC(=O)C2C3C=CC(C12)C1C(=O)NC(=O)C31 (stereo unspecified),-6
CO[C@H]1CN(C)C(=O)c2cccc(C#N)c2OCC[C@H]2CC[C@H](OC)[C@@H](CN(C)C(=O)[C@H]1C)O2,10[16.7 µM]

# Three entries from above, with values ahead of the structure:
Env fusion inh	mol
-4[16.7 µM]	Cc1noc(C)c1NC(=O)N(C)C[C@H]1Oc2ccc(N(C)C)cc2CC(=O)N([C@@H](C)CO)C[C@@H]1C
-6[16.7 µM]	Cc1ccccc1S(=O)(=O)Nc1ccc2c(c1)C(=O)N(C)[C@H]1CC[C@H](CC(=O)O)O[C@@H]1CO2
14[16.7 µM]	CO[C@@H]1CN(C)C(=O)c2ccc(NC(=O)C3CCC3)cc2OC[C@@H](C)N(CC2CCCCC2)C[C@@H]1C

# Looked up by structure from the list above, three records:
SMILES,Env fusion inh
COC(=O)[C@]12C[C@H](CC(=O)NCc3ccc(C)o3)C(=O)N(CCC3=CCCCC3)C1=C[C@H](COCc1ccccc1)O[C@@H]2C,8
O=C(C[C@H]1C[C@H]2c3cc(NC(=O)C4CCC4)ccc3O[C@H]2[C@@H](CO)O1)NCCc1ccccc1,14[16.7 µM]
CO[C@@H]1CC[C@@H]2CCN(C)C(=O)[C@H](C)[C@H](OC)CN(C)C(=O)c3cccc(C#N)c3OC[C@H]1O2,-3[16.7 µM]

# Continuation.
SMILES,Env fusion inh
COc1ccc(S(=O)(=O)N(C)C[C@@H]2Oc3ccc(NC(=O)Nc4cccc5ccccc45)cc3CC(=O)N([C@H](C)CO)C[C@H]2C)cc1,-5[16.7 µM]
CN1CCN(C(=O)C[C@@H]2CC[C@@H]3[C@H](COC[C@@H](O)CN3C(=O)Nc3ccc(F)cc3)O2)CC1,-16[16.7 µM]
C[C@@H](NC(=O)C[C@@H]1C=C[C@@H](NC(=O)Nc2ccc3c(c2)OCO3)[C@H](CO)O1)c1ccccc1,3[16.7 µM]
C[C@H]1CN([C@@H](C)CO)S(=O)(=O)c2ccc(-c3ccc(F)cc3)cc2O[C@H]1CN(C)C(=O)C1CCC1,5[16.7 µM]
COc1ccc(S(=O)(=O)N(C)C[C@H]2Oc3c(NC(=O)Nc4ccccc4)cccc3C(=O)N([C@@H](C)CO)C[C@@H]2C)cc1,13[16.7 µM]
O=C(C[C@H]1C[C@@H]2c3cc(NC(=O)c4cccnc4)ccc3O[C@@H]2[C@@H](CO)O1)NCCN1CCCCC1,-12[16.7 µM]
COc1cc2c(c(OC)c1OC)C1(CCCCC1)CC2NCC=C(C)C (stereo unspecified),-13
Cc1noc(C)c1NC(=O)Nc1ccc2c(c1)C(=O)N(C)[C@H]1CC[C@@H](CC(=O)N[C@H]3CCN(Cc4ccccc4)C3)O[C@H]1CO2,-8[16.7 µM]
CO[C@@H]1CN(C)C(=O)c2ccc(NC(=O)c3ccno3)cc2OC[C@H](C)N(C(=O)C2CCC2)C[C@@H]1C,14[16.7 µM]
CC=Cc1ccc2n(c1=O)C[C@@H]1[C@@H](CO)[C@H](C(=O)NCc3ccccc3Cl)N(S(C)(=O)=O)[C@H]21 (mixture of isomers),5[16.7 µM]
CC(C)NC(=O)N(C)C[C@@H]1OCCCC[C@@H](C)Oc2ccc(NC(=O)CCC(F)(F)F)cc2C(=O)N([C@@H](C)CO)C[C@@H]1C,-7[16.7 µM]
CC(C)NC(=O)N(C)C[C@H]1OCCCC[C@H](C)Oc2ccc(NC(=O)Nc3ccccc3)cc2C(=O)N([C@H](C)CO)C[C@@H]1C,-23[16.7 µM]
COC(=O)C[C@H]1CC[C@@H](NS(=O)(=O)c2ccccc2F)[C@@H](CO)O1,16[16.7 µM]
CC(C)NC(=O)Nc1ccc2c(c1)C(=O)N([C@@H](C)CO)C[C@@H](C)[C@@H](CN(C)C(=O)c1ccncc1)OCCCC[C@@H](C)O2,17[16.7 µM]
CO[C@H]1CN(C)C(=O)c2cc(NC(C)=O)ccc2OC[C@H](C)N(C(=O)c2ccc(F)cc2)C[C@H]1C,-1[16.7 µM]
COc1ccc(S(=O)(=O)N(C)C[C@@H]2OCCCC[C@H](C)Oc3ccc(NS(=O)(=O)c4cn(C)cn4)cc3C(=O)N([C@H](C)CO)C[C@@H]2C)cc1,-48[16.7 µM]
COc1cccc(S(=O)(=O)N(C)C[C@H]2OCc3ccccc3-c3ccccc3C(=O)N([C@H](C)CO)C[C@H]2C)c1,-11[16.7 µM]
COCCN1C(=O)c2ccccc2C1c1nnnn1C(C)C (stereo unspecified),0
Cc1noc(C)c1NC(=O)Nc1ccc2c(c1)C(=O)N(C)[C@H]1CC[C@H](CC(=O)N[C@@H]3CCN(Cc4ccccc4)C3)O[C@H]1CO2,6[16.7 µM]
C/C=C/c1cnc2c(c1)C(=O)N([C@H](C)CO)C[C@@H](C)[C@@H](CN(C)C(=O)c1cnccn1)O2,-8[16.7 µM]
CC=Cc1ccc2n(c1=O)C[C@H]1[C@H](CO)[C@@H](C(=O)N(C)C)N(CCC(F)(F)F)[C@@H]21 (mixture of isomers),14[16.7 µM]
CC(C)NC(=O)Nc1cccc2c1O[C@H](CN(C)Cc1ccc(Cl)c(Cl)c1)[C@@H](C)CN([C@@H](C)CO)C2=O,4[16.7 µM]
C/C=C/c1cnc2c(c1)C(=O)N([C@H](C)CO)C[C@H](C)[C@H](CN(C)C(=O)C1CCC1)O2,-8[16.7 µM]
COc1ccc2c3c([nH]c2c1)[C@@H](CO)N(C(=O)Nc1ccc(F)cc1)CC31CN(CC2CCOCC2)C1,-22[16.7 µM]
CCCCS(=O)(=O)N1CCCc2nc(C)c(C)cc21,3
O=C(C[C@H]1C[C@H]2c3cc(NC(=O)C4CCOCC4)ccc3O[C@H]2[C@H](CO)O1)NCc1ccc(Oc2ccccc2)cc1,6[16.7 µM]
CCCNC(=O)N1[C@@H]2c3cccc(=O)n3C[C@H]1[C@H](CO)[C@H]2C(=O)NCC(F)(F)F,13[16.7 µM]

# Reformatted with values ahead of the structure: three of the compounds above.
Env fusion inh	smiles
-11[16.7 µM]	COc1cccc(S(=O)(=O)N(C)C[C@H]2OCc3ccccc3-c3ccccc3C(=O)N([C@H](C)CO)C[C@H]2C)c1
13[16.7 µM]	COc1ccc(S(=O)(=O)N(C)C[C@H]2Oc3c(NC(=O)Nc4ccccc4)cccc3C(=O)N([C@@H](C)CO)C[C@@H]2C)cc1
-12[16.7 µM]	O=C(C[C@H]1C[C@@H]2c3cc(NC(=O)c4cccnc4)ccc3O[C@@H]2[C@@H](CO)O1)NCCN1CCCCC1

# The list is partial; count on the stated rates, not on these rows.
